TRPV1 PAM – enhances activation of the human vanilloid receptor TRPV1. Q8NER1. TRPV1-expressing cells, Fluo-8 calcium influx, capsaicin EC20 potentiation; host cell line not named in the record; control for the full effect not named in the record. potentiation, % at 8.33 µM. 0.02% of 320,000 active. AID 540277; active means potentiation above 80%; inconclusive means 30% to 80%; inactive means below 30%; also: 0% is about no effect
Target sequence (Q8NER1 whole entry, looked up): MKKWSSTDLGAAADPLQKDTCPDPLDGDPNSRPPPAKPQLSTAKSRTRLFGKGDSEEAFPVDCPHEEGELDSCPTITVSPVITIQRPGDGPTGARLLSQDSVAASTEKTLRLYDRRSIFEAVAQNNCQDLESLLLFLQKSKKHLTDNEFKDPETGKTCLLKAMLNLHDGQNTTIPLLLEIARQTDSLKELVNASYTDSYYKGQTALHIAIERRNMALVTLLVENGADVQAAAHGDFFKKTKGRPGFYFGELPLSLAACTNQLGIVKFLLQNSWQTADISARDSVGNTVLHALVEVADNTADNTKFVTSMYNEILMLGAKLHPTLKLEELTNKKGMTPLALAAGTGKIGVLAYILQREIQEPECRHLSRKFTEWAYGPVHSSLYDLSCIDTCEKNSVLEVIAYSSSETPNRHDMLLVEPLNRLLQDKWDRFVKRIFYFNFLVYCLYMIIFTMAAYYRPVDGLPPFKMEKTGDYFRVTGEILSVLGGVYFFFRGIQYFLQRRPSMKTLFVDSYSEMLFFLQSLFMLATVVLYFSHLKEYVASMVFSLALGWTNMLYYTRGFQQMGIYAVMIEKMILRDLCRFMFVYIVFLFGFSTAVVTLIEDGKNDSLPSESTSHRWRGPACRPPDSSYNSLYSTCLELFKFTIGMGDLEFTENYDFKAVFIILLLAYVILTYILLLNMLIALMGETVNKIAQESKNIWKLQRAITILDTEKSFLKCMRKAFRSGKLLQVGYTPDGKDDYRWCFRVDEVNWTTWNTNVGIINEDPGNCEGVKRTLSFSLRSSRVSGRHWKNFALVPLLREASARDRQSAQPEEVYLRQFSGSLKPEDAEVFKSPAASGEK
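Cells expressing TRPV1 were dye-loaded with Fluo-8 and read kinetically: 10 s baseline, 3 min after compound (agonist portion), then 2 min after EC20 capsaicin (allosteric enhancer portion). Calcium-bound dye fluorescence at 480/520 nm.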
TRPML1 blocker – inhibitors of human TRPML1 channel. activity change, negative = inhibition, % (test concentration not listed). TRPML1-inducible cells, Ca2+ dye fluorescence, FDSS; active compounds read low; inhibition of EC80 agonist-evoked calcium signal. Q9GZU1. 0.02% of 390,000 active; in the data active means activity change below about -50%; inconclusive means about -30% to -50%; inactive means above about -30%;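 also: stimulus is agonist 54-4 at its EC80 concentration; % is scaled to controls: 0 for no effect and ±100 for the full control effect; compound concentration not given in the record; the text of the record puts the active cut at -80%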
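Calcium fluorescence in TRPML1-DL cells induced overnight with Tet: a 110 s read after compound pin addition, then a 110 s antagonist read after challenge with 54-4 at 4 uM final (EC80).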
Six1-Eya2 blk – blocks human Six1 binding to Eya2; Q15475+O00167; AlphaScreen GST-Six1/His-Eya2 binding, biochemical; active compounds read low; control for the full effect not named in the record; activity change, % (concentration not given with the values); 0.56% of 360,000 active; AID 651725; in the data active = activity change below about -65%; inconclusive = about -30% to -65%; inactive = above about -30%; also: % is scaled to controls: 0 for no effect and ±100 for the full control effect
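Compounds are tested against tagged Six1 and Eya2 proteins bridged by glutathione donor and nickel acceptor beads; after a one-hour incubation at 37 °C without light, AlphaScreen emission is recorded.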
D2 potentiator – potentiates the human D2 dopamine receptor allosterically | 0.23% of 360,000 active | DiscoveRx D2 beta-arrestin cells, luminescence, 90 min; 100% = 57 uM dopamine signal | AID 624464 | P14416 | potentiation, % (concentration not given with the values); active = potentiation of 50% or more; inconclusive = 30% to 50%; inactive = 30% or less;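 also: compound concentration not given in the record; tested on top of an EC20 dose of dopamine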
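D2 cells co-treated with compound plus 50 nM dopamine (EC20) for 90 min at 37 deg C to detect potentiation. Beta-arrestin recruitment was read as enzyme-fragment luminescence after 1 h at ambient temperature. Full response was set by 57 uM dopamine.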
CtBP-E1A blk – blocks the CtBP interaction with E1A. AlphaScreen GST-E1A/His-CtBP binding, 1536-well; active compounds read low; control for the full effect not named in the record. activity change, % (no concentration beside the values). 0.49% of 340,000 active. AID 651724; in the data active means activity change below about -65%; inconclusive means about -30% to -65%; inactive means above about -30%; also: % is scaled to controls: 0 for no effect and ±100 for the full control effect
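GST-E1A and His-tagged CtBP (125 nM each as 5X stock) were preincubated with pin-transferred compound for 2 h at 37 °C in the dark, then glutathione donor and nickel acceptor beads were added for 1 h before AlphaScreen reading.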
TRPML1 ag – activates the human TRPML1 channel; Q9GZU1; activation, % (test concentration not listed); 0.12% of 410,000 active; AID 624414; TRPML1-expressing cells, Ca2+ dye fluorescence, FDSS; host cell line not named in the record; reference of the full effect not given here; in the data active = activation above about 50%; inconclusive = about 30% to 50%; inactive = below about 30%; also: 0% is about no effect; the text of the record puts the active cut at 80%
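TRPML1-DL cells, Tet-induced overnight (~16 h, 37 degrees C), loaded 45-90 min at room temperature with Ca8 no-wash calcium dye plus quencher. FDSS fluorescence: 10 s baseline, compound pin-transfer, 110 s agonist read, then EC80 54-4 (4uM final) and 110 s antagonist read.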
* marks the source's active call; other numbers are inactive results; ? = inconclusive; · = not tested or not shown.

SMILES	TRPV1 PAM	TRPML1 blocker	Six1-Eya2 blk	D2 potentiator	CtBP-E1A blk	TRPML1 ag
C/C(=N/NC(=O)OC(C)(C)C)c1ccco1	-7	7	3	-1	3	-0.5
COc1cc(S(=O)(=O)N2CCOCC2)ccc1NC(=O)COC(=O)c1ccc(Cl)nc1	·	-8	-2	-2	-2	-0.6
CCOc1ccc(NC(=O)CCC(=O)c2ccc(OC)cc2)cc1	0	6	10	-20	·	-0.8
CCOc1ccc(C(=O)OCCN(C)C)cc1	2	2	2	-19	0	-0.3
C[C@@H]1CCCCO[C@H](CN(C)Cc2ccc3c(c2)OCO3)[C@@H](C)CN([C@H](C)CO)C(=O)c2cc(NC(=O)c3ccccc3)ccc2O1	·	-14	-7	1	4	1.1
Cc1nc(NS(=O)(=O)c2ccccc2C)c2c3c(sc2n1)CCC3	26	-11	3	-2	2	0.9
CCOC(=O)c1ccc(CSc2ncn[nH]2)o1	?	14	5	1	5	-0.2
O=C(CCNS(=O)(=O)c1ccccc1C(F)(F)F)N1CCCCCCC1	25	-10	8	-2	-9	0.1
CC1C=CCC2C(=O)N(c3ccc(OC(=O)c4ccco4)cc3)C(=O)C12 (stereo not drawn)	-2	1	-11	6	-18	-0.3
O=C(NC1CCCCC1)NS(=O)(=O)c1ccc2c(c1)CCC2	·	-10	-1	-5	8	-0.1
Cc1ccc(C(=O)COc2ccccc2N2C(=O)c3ccccc3C2=O)cc1	-6	10	11	-12	1	2.2
COc1cccc(C2C=C(c3cccs3)Nc3ncnn32)c1OC (stereo not drawn)	6	10	0	7	1	6.1
NS(=O)(=O)c1cccc(NC(=O)CCS(=O)(=O)c2ccc(Cl)cc2)c1	7	-11	-3	-19	·	-0.1
Oc1ccc(C[C@@H]2CNCCN2CC2CCCCC2)cc1	11	-10	4	-55	-9	0.2
C=C(C)C(=O)N1CC2(CC(c3cccc(NC(=O)/C(C)=C\C)c3)=NO2)C[C@H]1C(N)=O (stereo partly drawn)	?	-17	-5	-13	-20	0.4
O=S(=O)(NCC1NCCc2ccccc21)c1ccccc1 (stereo not drawn)	18	3	6	-9	0	-0.5
CN(C(=S)NC(=O)c1ccc(Cl)cc1)C1CCCCC1	5	-21	-7	3	-6	0.3
CN(Cc1ccccc1)c1nc2c(c(=O)[nH]c(=O)n2C)n1Cc1ccccc1F	6	-3	-10	4	-2	2.0
OC(c1ccc(F)c(F)c1)c1nc(-c2ccc3c(c2)OCO3)cs1 (stereo not drawn)	·	·	-5	-2	5	-0.2
N#CCC(C(=O)c1cccnc1)c1ccccc1 (stereo not drawn)	·	-7	1	-1	15	-0.1
NC(=O)CC(O)c1cccc(Cl)c1 (stereo not drawn)	-3	-11	4	-4	4	-1.3
CN(C)S(=O)(=O)n1cc(/C=C(\NC(=O)c2ccccc2)C(=O)NCCCN2CCOCC2)c2ccccc21	-12	11	7	-32	-16	-0.1
COc1ccc(S(=O)(=O)NCC(c2ccc(F)cc2)N2CCN(C)CC2)cc1 (stereo not drawn)	3	-6	3	-30	0	1.5
COc1ccc(CCNC(=O)CSc2nnc(CNC(=O)c3c(F)cccc3Cl)o2)cc1OC	4	-10	1	-3	1	-1.0
COc1ccc(/C=C/C(=O)NCCc2nc3ccccc3[nH]2)cc1	-2	42	-8	-7	-6	0.2
Remaining list, next part
SMILES	TRPV1 PAM	TRPML1 blocker	Six1-Eya2 blk	D2 potentiator	CtBP-E1A blk	TRPML1 ag
COCCN1C=C(C(=O)OC)C(c2ccc(Cl)cc2)C(C(=O)OC)=C1	1	6	17	-17	9	3.0
CCc1cccc(NC(=O)c2ccc(NS(=O)(=O)c3c(C)noc3C)cc2)c1	-17	-5	0	-6	-2	0.3
CCOc1ccc(NC(=O)CN(C)C(=O)c2ccccc2OCc2c(C)noc2C)cc1OCC	23	11	0	-8	-6	0.2
CC1CCN(C(=O)/C(=C\c2ccco2)NC(=O)c2ccccc2)CC1	5	10	-1	-8	-15	0.2
COc1ccccc1-c1nc(C#N)c(N2CCN(C(=O)c3ccco3)CC2)o1	2	-11	0	18	9	-0.1
CCN1C(=O)C(C(=O)NC(C)c2ccccc2)C2CC1(C)Oc1ccccc12 (stereo not drawn)	1	1	2	-7	7	0.3
O=C(Nc1ccc(F)c(Cl)c1)c1csc([C@@H]2O[C@H](CO)[C@H](O)[C@H](O)[C@H]2O)n1	·	24	3	-16	2	0.1
O=C1C=CC(=Nc2ccc(F)cc2)O1	·	-1	-5	-20	1	-0.1
NC(=O)c1nsc(C(=O)N(Cc2ccc(F)cc2)C(C(=O)NCC2CCCO2)c2ccc(O)cc2)c1N (stereo not drawn)	16	17	-10	-9	-16	0.1
CC(=O)N1CCOc2ccc(S(=O)(=O)N3CCC(C(=O)NCc4ccc(Cl)cc4)CC3)cc21	·	-10	-5	-2	9	-0.9
O=C(C1CCN(S(=O)(=O)N2CCOCC2)CC1)N1CCN(c2ccccc2)CC1	-1	-6	0	20	5	-1.1
CC(C)c1ccc(/C=C2\SC(=S)N(CC(=O)NCCCN3CCOCC3)C2=O)cc1	-11	-5	-21	-9	2	-0.1
O=[N+]([O-])c1ncccc1OCc1ccc(Br)cc1F	-24	-8	1	-1	1	0.4
O=C1c2ccncc2C(=O)N1c1cccc(Cl)c1	0	5	0	-7	9	-0.2
OC(c1ccccc1)c1ccccc1CN1CCCNC1=S (stereo not drawn)	·	-6	-4	-12	1	-0.6
CCCC(=O)NC(C)C(c1cccs1)N1CCN(C)CC1 (stereo not drawn)	8	-10	4	-3	3	0.4
Cc1c(N=NC2=C(O)CC(C)(C)CC2=O)c(=O)n(-c2ccccc2)n1C	0	19	-25	-6	?	0.3
NC(=O)c1cc(S(=O)(=O)NCCc2ccc(Cl)cc2)cs1	-43	-2	-1	-15	2	-0.6
CC(C)OCCCNC(=O)CN1C(=O)/C(=C/c2ccccc2)Sc2ccccc21	25	15	1	-14	2	-0.4
COc1ccc(CC(=O)Nc2cccc(S(=O)(=O)N3CCCCC3)c2)cc1	4	83	-7	2	-5	2.6
CCOC(=O)c1ccccc1NC(=O)C1CC(=O)N(C(C)(C)C)C1 (stereo not drawn)	7	-2	4	-1	4	0.0
O=C(CSc1ccccn1)N/N=C/c1cc([N+](=O)[O-])ccc1O	?	-11	-88*	-21	·	-0.2
CC(C)(C)C(=O)NC(=S)NNC(=O)c1ccncc1	-3	5	5	-2	-16	0.0
CCOC(=O)c1snc(C(=O)NC2CCCCC2)c1N	-3	7	18	-17	17	2.2
CCC(=O)NCCc1nc2cc(NC(=O)c3cccs3)ccc2n1C	-1	3	1	-43	0	0.0

Some of the entries so far, in CSV form.
smiles,TRPV1 PAM,TRPML1 blocker,Six1-Eya2 blk,D2 potentiator,CtBP-E1A blk,TRPML1 ag
CC1CCN(C(=O)/C(=C\c2ccco2)NC(=O)c2ccccc2)CC1,5,10,-1,-8,-15,0.2
COc1ccc(CCNC(=O)CSc2nnc(CNC(=O)c3c(F)cccc3Cl)o2)cc1OC,4,-10,1,-3,1,-1.0
CCc1cccc(NC(=O)c2ccc(NS(=O)(=O)c3c(C)noc3C)cc2)c1,-17,-5,0,-6,-2,0.3
CCC(=O)NCCc1nc2cc(NC(=O)c3cccs3)ccc2n1C,-1,3,1,-43,0,0.0
COc1cccc(C2C=C(c3cccs3)Nc3ncnn32)c1OC (stereo not drawn),6,10,0,7,1,6.1
NC(=O)c1nsc(C(=O)N(Cc2ccc(F)cc2)C(C(=O)NCC2CCCO2)c2ccc(O)cc2)c1N (stereo not drawn),16,17,-10,-9,-16,0.1
COc1ccc(S(=O)(=O)NCC(c2ccc(F)cc2)N2CCN(C)CC2)cc1 (stereo not drawn),3,-6,3,-30,0,1.5

Next part.
SMILES	TRPV1 PAM	TRPML1 blocker	Six1-Eya2 blk	D2 potentiator	CtBP-E1A blk	TRPML1 ag
Cc1ccc(C)c(NC(=O)CCN2C(=O)c3ccccc3C2=O)c1	-3	·	7	5	5	·
CCC(C)N(C(=O)CSc1nnc(C)n1C)C1CCS(=O)(=O)C1 (stereo not drawn)	?	-8	0	-1	6	-0.5
O=C(CSc1nnc(COc2ccccc2)n1-c1ccccc1)c1cccs1	0	6	0	-16	0	-0.1
COc1ccc(Cl)cc1NC(=O)CN(C)C(=O)CCCc1c[nH]c2ccccc12	-6	11	-12	-25	-14	-0.4
O=C(Nc1ccncc1)c1ccc(Br)cc1	-28	-17	3	-19	·	-0.5
CC(=O)Nc1ccc(NC(=O)C(C)OC(=O)CNC(=O)c2sc3ccccc3c2Cl)cc1 (stereo not drawn)	0	2	4	3	1	1.3
O=C(O)C1(c2ccccc2)CCC(Nc2ccccc2)C1 (stereo not drawn)	-10	0	9	-1	3	-0.4
O=C(Cc1ccc(F)cc1)Nc1ccccc1Sc1ccccc1	-8	4	36	-3	57	0.8
CCCCCCS(=O)[C@H]1CS(=O)(=O)C[C@@H]1S(=O)CCCCCC (stereo partly drawn)	-1	10	7	-5	1	0.1
COc1ccc(C)cc1NC(=O)C1CCN(C(=O)c2ccc(C(C)(C)C)cc2)CC1	14	1	-6	-4	-3	1.7
COc1ccc(CN(C)CC(=O)N(C)CC(=O)Nc2ccccc2Br)cc1F	-6	-12	3	-3	·	-0.3
Cc1nnc(SCC(=O)NC2CCCC(C)C2C)n1N (stereo not drawn)	·	4	5	-26	2	0.5
CC(=O)Nc1ccc(N(C(=O)c2ccccn2)C(C(=O)NC2CCCCC2)c2ccc(F)cc2)cc1 (stereo not drawn)	10	-6	0	-4	1	1.0
CCSc1nnc(NC(=O)c2cc(C)on2)s1	-24	-4	6	-7	7	-0.2
CCOc1ccc(Nc2cc(C)nc(N3CCOCC3)n2)cc1	-26	-2	-3	-7	2	1.1
Cc1ccc(O)c(-c2cc(-c3cccc(F)c3)n[nH]2)c1	-11	0	0	2	2	1.6
OC(COc1ccc(OCc2ccccc2)cc1)CN1CCCCC1 (stereo not drawn)	-36	5	0	-3	1	1.1
COc1ccc(/C=N/N=C2/NC(=O)C(CC(=O)O)S2)cc1OCc1ccccc1Cl (stereo not drawn)	-7	2	-5	-2	-9	0.3
COc1cc(NS(=O)(=O)c2ccc(NC(=O)CN3C(=O)c4ccccc4C3=O)cc2)nc(OC)n1	-12	16	-7	-10	-2	-0.5
CCN(CC)CCC(C)OC(=O)c1ccc(O)cc1O (stereo not drawn)	12	3	-6	2	15	-0.4
Cc1ccc(S(=O)(=O)NC(=O)NCc2ccc(F)cc2)cc1	5	5	7	-5	·	-0.3
COc1ccccc1-n1c(=O)c2c3c(sc2n2c(SC(C)C)nnc12)CCC3	-13	11	2	-13	-3	0.1
O=C1CC(c2ccccc2)CCc2sccc2N1 (stereo not drawn)	4	20	-2	-11	0	0.4
COc1ccccc1CCc1nnc(CCC(=O)NCC[C@@H]2C[C@@H]3C=C[C@H]2C3)o1	7	-1	3	-2	6	-0.3
O=c1c2ccccc2nc2n1C(CSCc1ccccc1)CS2 (stereo not drawn)	-9	10	-6	23	13	-1.2
O=C(CSc1nc2ccccc2[nH]1)NCc1ccccc1	-31	·	-3	7	·	·
CCC(O)CNc1nc(-n2nc(C)cc2C)nc2sc3c(c12)CC(C)(C)OC3 (stereo not drawn)	-10	3	0	13	-15	-0.3
